RVFV N-RNA inh: RVFV nucleocapsid-RNA interaction inhibition; P21700; AID 651828; RVFV N-RNA binding, fluorescence polarization; active compounds read low; % bound, % (no concentration beside the values); actives 0.1% (n = 20,000);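 active means between 0 and 58% in either replicate with normal brightness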;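 further: 100 nL library stock added to about 12 µL; 100% = protein and probe without compound and 0% = probe alone; numbers are from one replicate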
Target sequence (P21700 whole entry, looked up): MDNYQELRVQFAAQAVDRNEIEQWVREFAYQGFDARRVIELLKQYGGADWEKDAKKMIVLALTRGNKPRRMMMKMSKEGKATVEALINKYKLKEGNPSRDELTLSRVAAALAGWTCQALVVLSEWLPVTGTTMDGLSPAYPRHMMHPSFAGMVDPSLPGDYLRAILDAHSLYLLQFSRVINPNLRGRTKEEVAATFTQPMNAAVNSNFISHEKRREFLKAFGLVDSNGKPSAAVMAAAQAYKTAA
* hit, by the source's call; & = joins results of further samples. Some of the compounds tested; the hit share may differ from the screen's.

SMILES | RVFV N-RNA inh
CCOCC(=O)Nc1cccc(C(F)(F)F)c1 | 100
Clc1ccc(N2CC3CCC(C2)N3)nn1 | 93
Cc1c(Cl)cccc1Nc1ccccc1C(=O)O | 93
CC(=O)NC1(C(F)(F)F)C(=O)Nc2c1c(=O)[nH]c(=O)n2Cc1ccco1 (stereo unspecified) | 98
NC(N)=N[C@@H](CCC(=O)O)C(=O)O | 101
CCN(/N=C\c1ccccc1O)C(=S)NC | 97
O=c1[nH]c(=O)n([C@H]2C[C@H](O)[C@@H](CO)O2)cc1I | 97
CC1CC(NC(=O)c2c(O)nc3ccccn3c2=O)CC(C)(C)C1 (stereo unspecified) | 98
Nc1nc(SCC(=O)N2CCCC2)[nH]c(=O)c1NC(=O)c1cccs1 | 98
COC(=O)c1c(NC(=O)C2CC2)sc(C)c1C | 89
c1ccc2nc3c(nc2c1)Nn1cnnc1S3 | 61
CC(=O)NC(C1C(=O)CC(C)(C)CC1=O)(C(F)(F)F)C(F)(F)F | 109
Cc1[nH]c(/C=C2\C(=O)Nc3ccc(S(=O)(=O)N(C)c4cccc(Cl)c4)cc32)c(C)c1C(=O)N1CCN(C)CC1 | 130
O=C(Nc1nnc2n1CCCS2)c1ccccc1 | 99
CC1(CC(=O)Nc2ccccc2)NC(=S)N(c2ccccc2)N1 (stereo unspecified) | 96
CCCOC(=O)CC1C(=O)NCCN1C(=S)NC(=O)Cc1ccc(Cl)cc1 (stereo unspecified) | 97
Cc1cc(/C=N/n2cnnc2)c(C)n1-c1cccc(I)c1 | 93
CCN(C(=O)COc1ccc(Cl)cc1C)c1ccccc1 | 103
N#Cc1cccc2c1-c1ccccc1C2 | 96
Cc1nn(Cc2cccc(C(=O)NN3CCCCC3)c2)c(C)c1Cl | 94
CCc1cccc(CC)c1N(COC)C(=O)CN1c2ccccc2NC1CC (stereo unspecified) | 96
OCCN1C[C@H](O)[C@@H](O)[C@H](O)[C@H]1CO | 93
CCc1ccc(-c2ccc(=O)n(CC(=O)N3CCCCC3)n2)cc1 | 88
COc1ccc(OC)c(NC(=O)COc2ccc3c4c(c(=O)oc3c2)CCC4)c1 | 106
COCC(=O)N1CCN(Cc2ccccc2)CC1 | 99
CSc1ccc(/C=N/NC(N)=S)cc1 | 87
CCOCC(=O)N1CCC(Cc2ccccc2)CC1 | 97
CN(C)S(=O)(=O)c1ccc(-c2csc(-c3cccnc3)n2)cc1 | 104
COc1ccc(NC(=O)/C=C2\SC(=O)NC2=O)cc1 | 99
CCOC(=O)C1=NN(c2ccc(C)cc2)C2C(=O)N(c3ccc(Cl)cc3)C(=O)C12 (stereo unspecified) | 98
COc1ccc(C(=O)Nc2ccc(N3CCN(S(C)(=O)=O)CC3)cc2)cc1OC | 102
O=C(Nc1cccc(-c2nc3ccccc3[nH]2)c1)C1CCCO1 (stereo unspecified) | 100
CC1CC(=O)N(C)c2ccccc2S1 (stereo unspecified) | 96
C=CCNC(=O)C(C)Sc1ccc(C)cc1 (stereo unspecified) | 102
O=S(=O)(NCC(c1cccs1)N1CCc2ccccc21)c1ccccc1 (stereo unspecified) | 101
COc1ccc(OC)c(S(=O)(=O)Nc2cccc(-c3cn4c(n3)SCC4)c2)c1 | 94
N/C(COc1ccc2nonc2c1)=N\OC(=O)c1ccc(Cl)cc1 | 81
COc1ccc2oc(=O)c(C(=O)OC3CCCCC3)cc2c1 | 92
O=C(CSc1nc2ccccc2o1)Nc1ccc(N2CCOCC2)c(Cl)c1 | 96
O=C(/C=C/c1ccccc1)N1CCc2ccccc21 | 87
O=C(CSc1ccc(-c2ccco2)nn1)N1CCCc2ccccc21 | 78
CSc1nc(=O)n(Cc2ccccn2)c2c1CCC2 | 103
Cc1occc1C(=O)Nc1ccc(C(=O)N2CCCCC2)cc1 | 99
Cc1ccc(NNC(=O)c2ccno2)cc1C | 95
CCN1C=C(C(=O)OC)C(c2ccc(C(C)C)cc2)C(C(=O)OC)=C1 | 96
Nc1ccc(N2C(=O)c3ccccc3C2=O)c(Cl)c1 | 94
O=C(C1CC(=O)N(C2CCCCC2)C1)N1CCN(c2cccc(C(F)(F)F)c2)CC1 (stereo unspecified) | 96
CN1CCN(c2ccc(NC(=O)CC34CC5CC(CC(C5)C3)C4)cc2)CC1 | 107
COc1ccc(CC(=O)NCCS(=O)(=O)N2CCN(c3ccc(OC)cc3)CC2)cc1 | 111
CCc1c(C(=O)NC2CCCC2)csc1C | 93
CCCCOC(=O)c1sc2scc(C)c2c1C | 99
Cc1ccccc1N1CCn2c1nc1c2c(=O)n(C)c(=O)n1C | 94
N#Cc1cn(Cc2ccccc2)c(=O)[nH]c1=O | 95
CCOC(=O)N1CCN(C(=O)CSc2ccc(-c3ccccc3)nn2)CC1 | 99
O=C(COC(=O)c1cc(=O)[nH]c2ccccc12)c1ccccc1 | 93
COC(=O)c1c(C)oc(C)c1S(=O)(=O)NCCSCc1c(F)cccc1Cl | 97
CC(=O)Nc1ccc(C(=O)Nc2ccc(OCC(=O)O)cc2)cc1 | 109
COc1ccc(S(=O)(=O)NCc2cn3cccc(C)c3n2)cc1OC | 89
NC(=NCc1ccc(Cl)cc1)SCCCc1cnc[nH]1 | 104
CCNCC(O)COc1cc(C)c(Cl)c(C)c1 (stereo unspecified) | 91

Quoted at random: 12 records from the list
SMILES | RVFV N-RNA inh
CCOC(=O)N1CCN(C(=O)CSc2ccc(-c3ccccc3)nn2)CC1 | 99
CCc1c(C(=O)NC2CCCC2)csc1C | 93
COC(=O)c1c(C)oc(C)c1S(=O)(=O)NCCSCc1c(F)cccc1Cl | 97
Cc1ccccc1N1CCn2c1nc1c2c(=O)n(C)c(=O)n1C | 94
CC(=O)Nc1ccc(C(=O)Nc2ccc(OCC(=O)O)cc2)cc1 | 109
COc1ccc(S(=O)(=O)NCc2cn3cccc(C)c3n2)cc1OC | 89
CN1CCN(c2ccc(NC(=O)CC34CC5CC(CC(C5)C3)C4)cc2)CC1 | 107
N#Cc1cn(Cc2ccccc2)c(=O)[nH]c1=O | 95
CCNCC(O)COc1cc(C)c(Cl)c(C)c1 (stereo unspecified) | 91
O=C(C1CC(=O)N(C2CCCCC2)C1)N1CCN(c2cccc(C(F)(F)F)c2)CC1 (stereo unspecified) | 96
COc1ccc(CC(=O)NCCS(=O)(=O)N2CCN(c3ccc(OC)cc3)CC2)cc1 | 111
CCCCOC(=O)c1sc2scc(C)c2c1C | 99

(continued)
SMILES | RVFV N-RNA inh
COc1ccc(CNC(=O)Nc2ncc([N+](=O)[O-])s2)cc1 | 106
COc1ccc(C2c3cccn3CCN2S(=O)(=O)c2ccc(NC(C)=O)cc2)cc1OC (stereo unspecified) | 95
CN(C)C(=O)c1c(NC(=O)c2ccccc2)sc2c1CCC2 | 97
COc1ccc(OC(=O)Nc2csc(Cc3ccsc3)n2)cc1 | 101
CN(C)c1ccc(Nc2ncnc3ccc(I)cc23)cc1 | 111
CCOC(=O)c1cc(/C(C)=N/OC(=O)c2ccccc2)on1 | 98
COC(=O)CSc1nnc2c3ccccc3n(CCc3ccccc3)c2n1 | 104
COc1ccc2c(c1)sc(=NC(=O)c1cccc(S(C)(=O)=O)c1)n2C | 91
NC(=O)Cn1c(=O)c2ccc(Cl)cc2n2nncc12 | 95
Cc1ccc(S(=O)(=O)c2nc(-c3ccccc3)oc2NCc2ccc3c(c2)OCO3)cc1 | 91
COC(=O)c1cc(-c2ccccc2)nc2ccccc12 | 89
CCCCN(C)S(=O)(=O)c1ccc(C(=O)Nc2nnc(-c3ccco3)o2)cc1 | 96
O=C1CNC(=S)N1CCc1cnc[nH]1 | 94
Cc1c(O)cccc1C(=O)N[C@@H](CSc1ccccc1)[C@H](O)CN1C[C@H]2CCCC[C@H]2C[C@H]1C(=O)NC(C)(C)C | 101&95&94
COc1ccc(CC(=O)Nc2ccc(S(N)(=O)=O)cc2)cc1OC | 93
Cc1onc(-c2ccccc2)c1C(=O)NC(=S)Nc1sc2c(c1C#N)CCC2 | 99
Cc1nn2c(C)nc3sc4c(c3c2nc1=O)CC(C)(C)OC4 | 97
C=CCNC(=O)c1csc2c1CCCC2 | 89
O=C(O)c1ccc(C(=O)NCC2CCCO2)c(C(=O)O)c1 (stereo unspecified) | 97
CC1CN(C(=O)CSc2nnc(NC(=O)Nc3ccccc3)s2)CC(C)O1 (stereo unspecified) | 102
COc1ccc(/C=C(\C#N)C(N)=O)cc1OC | 98
O=c1[nH]c2cccnc2n1-c1ccccc1 | 96
COC(=O)C(NC(=O)c1ccc(Cl)cc1)C(F)(F)F (stereo unspecified) | 87
O=c1c(-c2cnn(-c3ccccc3)c2)coc2c3c(ccc12)OCO3 | 93
CC1CCN(S(=O)(=O)c2c[nH]c(=O)[nH]c2=O)CC1 | 95
COc1ccc(C(=O)Nc2ccc(-c3nc4ccccc4o3)cc2)cc1OC | 88
C/C(=N\O)c1sc2ccc(Cl)cc2c1C | 97
COc1ccccc1N1CCN(CCCCNS(=O)(=O)c2ccc(Cl)c(Cl)c2)CC1 | 93
CCn1ncc(NC(=S)NCCc2ccccc2)c1C(N)=O | 99
Nc1nc(Cl)nc2c1ncn2[C@@H]1O[C@H](CO)[C@@H](O)[C@@H]1F | 109
CCc1c(C(=O)Nc2ccncc2)csc1C | 93
Fc1cc(F)c2nc(N3CCN(c4nc5ccccc5s4)CC3)sc2c1 | 94
OCC(CO)(CO)NC(=S)Nc1ccc(F)c(Cl)c1 | 99
COc1cccc(OCc2nc3ccccc3c(=O)n2N)c1 | 93
O=C(NC1CCCC1)c1c(F)c(F)c(F)c(F)c1F | 97
O=C(NC(=O)c1ccccc1)Nc1cc(N2CCCCC2)ncn1 | 98
NC(=O)c1cc(N2CC2)c([N+](=O)[O-])cc1[N+](=O)[O-] | 96
CC(C)[C@H](N)C(=O)OCCOCn1cnc2c(=O)[nH]c(N)nc21 | 95&99
O=C1N/C(=N\c2ccccn2)SC1Cc1ccccc1 (stereo unspecified) | 95
Cc1cccc(CSc2nnc(CCC(=O)O)c(=O)[nH]2)c1 | 92
O=C1CSc2nnc(-c3cccs3)n21 | 95
O=C(O)CSc1nnc2nnc3ccccc3n12 | 93
Cc1cc(C(=O)O)ccc1-c1ccc(/C=N/n2cnnc2)o1 | 89
O=C(c1cc2ccccc2oc1=O)N1CCC2(CC1)OCCO2 | 96
O=C(Nc1ccc([N+](=O)[O-])cc1Cl)c1cc(Cl)ccc1O | 98
CCC(C)NC(=O)COc1ccc(Br)c(C)c1 (stereo unspecified) | 94
COc1cc(Br)cc2cc(C(=O)N3CCN(c4ccccn4)CC3)c(=O)oc12 | 94
CC1CCCCN1C(=O)Nc1c[nH]c2ccccc12 (stereo unspecified) | 89
CCOC(=O)c1cncn1[C@H](C)c1ccccc1 | 99
COc1ccc(Br)cc1CNc1ccc(N2CCOCC2)cc1 | 89
COCc1c(C)cc(C)c(C=C(C#N)C#N)c1C | 96
O=C1CCCC2=C1C(c1ccc(F)cc1)c1c([nH]c(=O)[nH]c1=O)N2 (stereo unspecified) | 96
O=C(CSc1nc2ccccc2[nH]c1=O)Nc1ccccc1 | 92
CCONC(=O)Nc1ccccc1 | 106
Cc1cc(C(F)(F)F)nn1CC(=O)N1CCCCC1 | 103
CC1(C)CC(=O)C2=C(C1)Nc1ccccc1N(C(=S)NCc1ccco1)C2c1cccnc1 (stereo unspecified) | 101
CN1CCc2ccccc2Cc2[nH]c3ccccc3c2CC1 | 98
N#CSCCCOc1ccccc1Br | 97
O=C(c1ccc(-c2cccs2)s1)N1CCOCC1 | 93
COc1ccc(N=C2C(=O)Nc3ccc(Br)cc32)cc1 | 98
(cont.)
SMILES | RVFV N-RNA inh
O=C1c2ccccc2C(O)(Cc2ccccc2)N1Cc1ccccc1 (stereo unspecified) | 95
CN1CCc2c(sc3[nH]c(=O)c4c(=S)nc(-c5ccco5)[nH]c4c23)C1 | 95
Clc1ccccc1CSc1nncn1NCc1ccccc1 | 103
O=C(Nc1ccon1)c1ccccc1F | 111
O=c1c2ccccc2nc(-c2ccoc2)n1-c1ccccc1 | 88
O=C(N[C@H]1CN2CCC1CC2)c1ccc(Cl)cc1 | 99
NCC(=O)Nc1ccc(Br)cc1 | 94
CCN(CC)C(=O)/C(=C/c1ccccc1)c1ccccc1 | 99
CCOC(=O)Cn1cc(/C=C(\C#N)Sc2nc3ccccc3s2)c2ccccc21 | 93
c1ccc(-n2ncc3c(N4CCN(CCOc5cccc6ccccc56)CC4)ncnc32)cc1 | 97
Cc1ccc(CSCCNS(=O)(=O)c2ccccc2)cc1 | 90
O=C(/C=C/c1ccco1)Nc1ccc2nn(-c3ccccc3)nc2c1 | 94
CC(CN=CC1=C(O)CC(C)(C)CC1=O)c1ccccc1 (stereo unspecified) | 93
CC(=O)Oc1cccc(C(=O)N2CCC(C)CC2)c1 | 92
Cc1[nH]c(=S)[nH]c(=O)c1Cc1ccc(C(=O)O)o1 | 95
CC(C)(C)c1ccc(CSc2nc3c(c(=O)[nH]2)CCC3)cc1 | 91
Cc1nn(C(=O)c2ccco2)c(-c2ccccc2)c1Sc1ccccc1 | 94
CC(=O)Nc1cccc(-n2nnc(SCC(=O)c3cc(-c4ccccc4)no3)n2)c1 | 98
CCCCCCCC/C=C\CCCCCCCC(=O)NCc1ccc(O)c(OC)c1 | 95
Cc1c(C(=O)N2CCOCC2)cc(C(C)(C)C)n1-c1ccccc1 | 105
O=C1CCC(=O)N1c1ccc(S(=O)(=O)NCCCN2CCN(Cc3ccccc3)CC2)cc1 | 107
C/C(CN1C(=O)c2ccccc2C1=O)=N/NC(=O)c1ccccc1O | 90
COc1ccc2nnc(-c3ccccc3)n2n1 | 98
N=C(N)N1CCc2ccccc2C1 | 96
O=C(CSc1nc2ccccc2nc1-c1ccccc1)NCCN1CCOCC1 | 86
COc1ccccc1-n1c(=O)c2c3c(sc2n2c(SCC(=O)c4ccccc4)nnc12)CCC3 | 95
CCOC(=O)/C(C#N)=C/c1ccccc1 | 97
COc1cc(Br)c(CCNC(=O)c2ccco2)cc1OC | 95
CNC(=O)N(C1=NCCS1)c1ccccc1 | 97
Cc1cc(C(=O)Nc2ccc(C(=O)N3CCOCC3)cc2)cs1 | 88
c1coc(CSc2nc3ccccc3n3cnnc23)c1 | 97
O=C(CSc1ccccc1)Nc1ccccc1N1CCOCC1 | 94

High-throughput results (PubChem)
